Bioassay records as filed in PubChem BioAssay.
HNF4A DNA FP: change in binding of human HNF4 alpha to DNA; P41235; HNF4a-FITC DNA binding, fluorescence polarization, 1 h; activity change, % at 10 µM; actives 0.3% (n = 360,000); AID 1224865; in the data active means activity change above about 30%, passing the limit was not always enough;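 further: controls were the assay level and a saturating level of protein; the project sought stronger binding though the title names inhibitors; some compounds called inactive have numbers as strong as hits; positive values seem to mean higher polarization but the record does not say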
AF4-AF9 inh: blocks AF4 peptide binding to human AF9; P42568; AlphaScreen, biotin-AF4 peptide binding to FLAG-AF9; inhibition, % at 10 µM; actives 0.47% (n = 350,000);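 active means every replicate reaching a set inhibition limit, whatever the replicate mean, cut at about 25% in these data; inconclusive means mean inhibition reaches that limit but some replicates miss it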;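 further: 0% = plate neutral control median and 100% = total signal loss; the record names both 10 and 1 µM as test concentration; the first replicate is given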
Target sequence (P42568 whole entry, looked up): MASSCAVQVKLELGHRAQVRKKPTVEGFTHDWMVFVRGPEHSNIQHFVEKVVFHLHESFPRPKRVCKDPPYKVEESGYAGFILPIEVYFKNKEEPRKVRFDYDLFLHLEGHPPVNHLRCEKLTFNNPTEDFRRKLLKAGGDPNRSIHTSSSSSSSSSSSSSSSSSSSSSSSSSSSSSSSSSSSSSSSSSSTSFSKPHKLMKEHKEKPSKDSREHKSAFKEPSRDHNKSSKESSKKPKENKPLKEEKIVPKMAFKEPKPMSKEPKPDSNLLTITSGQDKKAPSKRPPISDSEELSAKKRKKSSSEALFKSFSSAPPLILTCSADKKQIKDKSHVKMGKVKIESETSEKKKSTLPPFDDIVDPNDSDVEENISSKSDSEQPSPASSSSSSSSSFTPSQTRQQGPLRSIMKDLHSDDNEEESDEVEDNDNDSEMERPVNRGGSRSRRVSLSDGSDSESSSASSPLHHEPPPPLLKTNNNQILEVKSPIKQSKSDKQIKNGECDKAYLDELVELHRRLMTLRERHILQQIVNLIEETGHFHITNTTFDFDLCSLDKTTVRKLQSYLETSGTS
FGF22 binding: FGF22 (human) thermal shift binding | Q9HCT0 | recombinant FGF22 thermal shift, SYPRO orange fluorescence; percent of sucrose octasulfate shift, DMSO zero | calls only at 9.99 µM | actives 1.5% (n = 340,000);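 active means melting point raised past a set limit in the mean and every replicate; inconclusive means no clear call; three in four hits are not shown here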
Target sequence (Q9HCT0 whole entry, looked up): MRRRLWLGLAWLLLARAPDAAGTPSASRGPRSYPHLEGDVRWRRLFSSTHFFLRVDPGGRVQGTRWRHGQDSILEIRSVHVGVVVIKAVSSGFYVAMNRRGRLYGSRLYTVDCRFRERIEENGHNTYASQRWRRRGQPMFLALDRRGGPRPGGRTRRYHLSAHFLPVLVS
Vif A3G: HIV-1 Vif–A3G interaction blockers – biochemical, TR-FRET, GST-Vif 1-94, biotin-A3G peptide, dose response retest, primary screen (AID 1117319); TR-FRET GST-Vif / biotin-A3G peptide binding; higher % means a stronger effect; test concentration not given here; strong numbers were not always called active; actives 0.57% (n = 260,000); inhibition, %, or IC50 in µM where a hit was titrated;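 active means above the screen mean plus three standard deviations and confirmed in dose response; inconclusive means results disagree or hit not tested in dose response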;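 further: Vif residues 1-94 fused to GST binding biotinylated APOBEC3G peptide 110-148; 0% = full assay without inhibitor and 100% = GST in place of GST-Vif; retest series ran down from 100 µM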
ALR inh: blocks human ALR sulfhydryl oxidase activity. actives 3.8% (n = 290,000). inhibition, % (no concentration beside the values). purified ALR, DTT oxidation, H2O2 HRP-luminol luminescence;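 active means mean and each replicate at 75% or more; inconclusive means only one of the two met; inactive means neither met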;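 further: stock transfer was 7.5 nL into about 7.5 µL; 0% = neutral wells and 100% = wells with inactivated enzyme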
Target sequence (P55789 whole entry, looked up): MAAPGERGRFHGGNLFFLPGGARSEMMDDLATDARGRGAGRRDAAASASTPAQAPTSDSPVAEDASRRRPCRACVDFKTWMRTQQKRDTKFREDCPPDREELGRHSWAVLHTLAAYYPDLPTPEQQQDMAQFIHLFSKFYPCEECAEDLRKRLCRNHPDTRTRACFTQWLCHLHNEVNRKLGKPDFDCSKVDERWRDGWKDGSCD
E coli growth: inhibitors of Escherichia coli growth; OD600, 23 h; hits give low values; OD600 absorbance (no concentration beside the values); actives 0.21% (n = 330,000);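 active means OD600 absorbance below the run mean of sample wells minus 3.6 SD, in any replicate, cut at about 0.56 in these data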;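 further: stock transfer was 300 nL into about 60 µL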
rRNA inh HTS: selective bacterial rRNA inhibition in E. coli | GFP signal change (wild-type ribosome), % (no concentration beside the values) | E. coli WT GFP vs humanized-ribosome RFP mutants, fluorescence, 24 h; hits give low values; DMSO median 0, no signal -100 | actives 1.6% (n = 350,000);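 active means significant combined selectivity score with lowered wild-type GFP, culture density cut under 30%, mutant RFP and density less affected; inactive means any of these conditions unmet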; further: one replicate is shown; some compounds called inactive have numbers as strong as hits
rRNA inh HTS OD600: further read-out of rRNA inh HTS, marked with its call; OD600 change, %; measured here: OD600 growth;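 optical density of the mix in the first replicate; 0 = DMSO median and -100 = no signal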
rRNA inh HTS RFP: second read-out of rRNA inh HTS, no call of its own (marks repeat the call); RFP signal change, %; measured here: RFP humanized mutant strains;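 first replicate; 0 = DMSO median and -100 = no signal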
Active calls of the source: *; i = inactive; ? = inconclusive; / = no result given. A portion of the library. The share of hits here may be higher or lower than overall.

#	structure	HNF4A DNA FP	AF4-AF9 inh	FGF22 binding	Vif A3G	ALR inh	E coli growth	rRNA inh HTS	rRNA inh HTS OD600	rRNA inh HTS RFP
1	CO[C@H]1CN(C)C(=O)c2ccc(NS(=O)(=O)c3ccc(C)cc3)cc2OC[C@H](C)N(C(=O)NC(C)C)C[C@@H]1C	/	-4.5	i	/	/	/	-1	1	0.0
2	C/C(=N\NC(=O)CN1CCN(S(=O)(=O)c2ccc(C)cc2)CC1)c1ccc(O)cc1	3.0	2.9	i	6%	99*	/	2	4	-3.8
3	N#CC1(Nc2ccc(Br)cc2)CCCC1	-1.6	-3.6	i	2%	/	0.67	6	13	-1.3
4	COc1cc(NC(=O)C2CC(=O)N(Cc3ccco3)C2)c(OC)cc1Cl (stereo not drawn)	-3.6	-1.0	i	/	/	0.69	/	/	/
5	O=C(c1ccccc1F)N1CC2(C1)[C@H](c1ccccc1)[C@H](CO)N2CC1CC1	/	-1.1	i	/	/	/	-1	0	0.3
6	CC1CCN(C(=O)COC(=O)COc2ccccc2C#N)CC1	-1.7	0.5	i	/	-3	0.65	/	/	/
7	Cc1ccc(CNC(=S)Nc2ccc3c(c2)c(=O)n(C)n3Cc2cccc(C(F)(F)F)c2)cc1	0.5	0.7	i	/	/	/	-9	-13	-3.2
8	Cc1cnc(C(=O)OCC(=O)c2ccc(C3CCCCC3)cc2)cn1	-3.6	4.1	i	-12%	-6	0.69	8	19	-0.3
9	C=CCOc1ccc(CNCc2cccnc2)cc1	2.5	1.3	i	10%	-1	0.63	3	2	-1.3
10	Cc1cc(C(=O)Nc2cccc3c2O[C@@H](CN(C)Cc2ccc(C(=O)O)cc2)[C@H](C)CN([C@@H](C)CO)C3=O)n(C)n1	/	-3.6	i	/	/	/	3	-6	0.1
11	C[C@H](O)C#Cc1ccc2c(c1)O[C@@H](CN(C)Cc1cccnc1)[C@H](C)CN([C@H](C)CO)S2(=O)=O	/	4.9	i	/	/	/	-3	-4	0.6
12	COc1cccc(CN(C)C(=O)c2cc(S(=O)(=O)NC3CCCCC3)ccc2C)c1OC	0.2	2.5	i	-6%	-8	0.66	3	-14	6.4
13	C/C(=N\NC(=O)CNC(=O)C(c1ccccc1)c1ccccc1)c1ccc(C(C)(C)C)cc1	2.5	/	/	12%	-1	/	/	/	/
14	COC(=O)/C=C1\OCc2ccc(C)cc21	-1.2	-3.9	i	/	/	/	6	18	0.3
15	CCn1c(CNc2ccc(F)cc2)nnc1SCC(=O)Nc1ccccc1OC	-0.1	/	/	13%	-9	0.7	/	/	/
16	Cn1c(CNC(=O)CCNC(=O)c2cccc(Cl)c2)cc(=O)n(C)c1=O	3.9	-5.8	i	/	-1	0.67	5	7	-4.1
17	Cc1ccccc1-c1cc(=O)c2c(O)cccc2o1	-1.4	2.0	i	/	5	0.65	-13	-6	-11
18	COc1ccc(NS(=O)(=O)c2ccc(C(=O)NCC3(N4CCOCC4)CCCCC3)cc2)cc1	5.3	2.0	i	3%	-6	0.7	10	2	15
19	O=[N+]([O-])c1nccn1CC(O)CCN1CCOCC1 (stereo not drawn)	/	-1.5	i	/	/	/	9	18	5.6
20	CCN(CC)C(=O)OCc1c(-c2cccc(OC)c2)ncc2ccccc12	2.5	-2.8	i	/	6	0.69	-37	-53	0.5
21	CC(C)Cc1cc(C(=O)N2CCCC(C(=O)c3cc(F)ccc3F)C2)no1 (stereo not drawn)	2.8	-0.5	i	/	4	0.69	-36	-41	-6.4
22	C[C@H](CO)N1C[C@H](C)[C@@H](CN(C)C(=O)C2CC2)Oc2cc(C#Cc3ccccn3)ccc2S1(=O)=O	/	-1.9	i	/	/	/	-2	-6	0.4
23	COc1ccccc1S(=O)(=O)N[C@H]1C=C[C@@H](CC(=O)N2CCOCC2)O[C@H]1CO	/	-4.0	i	/	/	/	0	0	-1.7
24	COc1ccc(C(=O)N2CCC2(C)C(=O)NC(C)C)cc1OC (stereo not drawn)	-3.0	-1.0	i	/	/	/	9	26	-9.5
25	COc1ccccc1C(C[N+](=O)[O-])c1c[nH]c2ccccc12 (stereo not drawn)	0.5	/	i	2%	/	0.65	-51	-74	-11
26	COc1ccccc1NC(=O)N(C)C[C@@H]1Oc2ncc(Br)cc2C(=O)N([C@@H](C)CO)C[C@H]1C	/	-1.8	i	/	/	/	2	5	-2.9
27	O=C(N/N=C/c1cccc(O)c1)C(=O)N1CCCCCC1	-0.8	-3.2	i	/	/	/	4	4	2.6
28	CC(C)c1nnc(NC(=O)CCC(=O)N2CCN(c3ccccc3F)CC2)s1	2.5	-3.6	i	/	2	0.71	0	-1	0.5
29	COc1cc(C=O)ccc1OCCOCCOc1c(C)cc(Cl)cc1Cl	-2.3	/	/	3%	/	0.72	/	/	/
30	O=C(CCCN1C(=O)CCC1=O)Nc1ccc(Br)cc1F	1.5	/	/	3%	3	0.67	/	/	/
31	COc1ccc2cc(N3CCCC3=O)ccc2c1	3.4	-0.3	i	-9%	/	0.68	2	8	1.4
32	COc1ccccc1CN1CC[C@H]2[C@H](CO)Nc3ccc(C#Cc4ccccc4)cc3[C@H]21	/	3.3	i	/	/	/	-55	-74	-16
33	CCc1nc(N2CCN(S(C)(=O)=O)CC2)c2c3c(sc2n1)CCCC3	2.9	-3.7	i	?	-11	0.67	-23	-36	-7.7
34	Cc1cccc(NS(=O)(=O)c2ccc3[nH]c(=O)[nH]c3c2)c1C	-2.6	7.6	i	-3%	-16	0.68	-2	-5	-0.6
35	CC(C)(C)n1nnnc1SCC(=O)Nc1nn(-c2ccccc2)nc1C(N)=O	3.5	1.4	i	15%	27	0.69	5	-3	0.3
36	Cc1cc(C)c(NC(=O)C2CCCCN2C)c(C)c1 (stereo not drawn)	12	/	/	-4%	-4	0.7	/	/	/
37	CCOc1ccc(C(=O)Nc2ccc(-c3nc4ccccc4[nH]3)cc2)cc1[N+](=O)[O-]	1.1	/	/	/	-1	0.71	/	/	/
38	O=C(Nc1ccccc1C(=O)NCc1ccccc1)C1=CSCCO1	2.0	-1.9	i	/	1	0.7	1	2	-0.3
39	CCOC(=O)CSc1nc2cc(C(F)(F)F)cnc2n1C	1.2	-4.0	i	0%	4	0.7	10	14	3.0
40	CC(C)CN=c1cc(-c2ccccc2)oc2ccc(Cl)cc12	2.3	/	/	5%	/	0.66	/	/	/
41	Cc1cc(C)c2c(CN3CC(C)OC(C)C3)cc(=O)oc2c1C (stereo not drawn)	0.3	-6.9	i	4%	5	0.7	-9	-9	-0.7
42	CC(=O)c1ccc(N2CCN(S(=O)(=O)c3ccc4c(c3)NC(=O)CO4)CC2)cc1	2.6	-1.8	i	/	1	0.67	9	18	0.9
43	CC(Sc1ncnc2ccccc12)C(=O)Nc1ccc2c(c1)OCO2 (stereo not drawn)	1.3	/	/	8%	-6	0.75	/	/	/
44	CC(OC(=O)CCCC(=O)Nc1ccc(F)cc1)C(=O)c1ccccc1 (stereo not drawn)	-0.2	1.5	i	/	-7	0.67	-3	-8	2.9
45	COc1ccc(C(=O)C(CCCCC(CN(C)C)C(=O)c2ccc(OC)cc2)CN(C)C)cc1 (stereo not drawn)	-1.1	/	/	3%	-3	0.76	/	/	/
46	COc1ccc(/C(O)=C2/C(=O)C(=O)N(CCN3CCOCC3)C2c2ccc(C)cc2)cc1 (stereo not drawn)	-1.2	/	/	-4%	2	0.7	/	/	/
47	S=C(NCCN1CCOCC1)Nc1ccc(Cl)cc1Cl	-0.9	2.0	i	/	95*	0.65	1	-2	-3.0
48	Cc1cc(C)n2nc(C(=O)OCC(=O)NCc3ccc(F)cc3)nc2n1	-5.5	-4.4	i	/	37	0.68	10	14	0.8
49	Cc1ccc2c(c1)c1ncn(CCC3=CCCCC3)c(=O)c1n2C	-0.2	/	/	-3%	3	0.66	/	/	/
50	N=C(N)SCC1=CCS(=O)(=O)C1	-0.3	-4.4	i	14%	?	0.69	10	4	-0.3
51	COc1cc(OC)c(OC)cc1C=Cc1ccc2ccccc2n1	-2.4	-6.0	i	-7%	/	/	13	7	6.8
52	Cc1cc(C)n(C(=O)CN2C(=O)c3ccccc3C2=O)n1	0.4	5.4	i	-1%	-3	0.67	16	21	-1.8
53	CCS(=O)(=O)c1nc(S(=O)(=O)c2ccc(C)cc2)c(NCCN2CCOCC2)s1	5.1	0.5	i	/	2	0.69	14	14	5.2
54	CC(C)(C)OC(=O)N1CCN(C(=O)c2nc[nH]c2C(=O)N2CCN(C(=O)OC(C)(C)C)CC2)CC1	-0.5	/	i	/	18	0.68	10	12	5.6
55	COCc1nnc(NC(=O)c2c(-c3c(Cl)cccc3Cl)noc2C)s1	-1.2	1.2	i	-2%	5	/	-5	0	-1.4
56	FC(F)(F)c1nnc2ccc(NCn3nnc4ccccc43)nn12	-1.6	/	/	-1%	-16	0.71	/	/	/
57	Cc1ccc(CS(=O)(=O)c2ccc(C(=O)N3CCN(c4ccccn4)CC3)cc2[N+](=O)[O-])cc1	0.4	2.5	i	3%	?	0.72	9	7	-2.2
58	COc1ccc(/C=N/N2C(=O)CN(C(=O)c3ccccc3)C2c2ccc(OC)cc2)cc1 (stereo not drawn)	-1.2	5.0	i	-1%	-22	/	-18	-2	11
59	O=C(c1coc2ccccc2c1=O)N1CCN(c2cccc(C(F)(F)F)c2)CC1	-4.3	-17	i	3%	4	0.67	5	9	1.6
60	CS(=O)(=O)N1CCN(C(=O)Cc2ccccc2Cl)CC1	1.7	-2.1	i	14%	-4	0.71	14	2	-6.6

Additional structures follow.
#	structure	HNF4A DNA FP	AF4-AF9 inh	FGF22 binding	Vif A3G	ALR inh	E coli growth	rRNA inh HTS	rRNA inh HTS OD600	rRNA inh HTS RFP
61	COc1ccc(C#Cc2ccc3c(c2)O[C@@H](CN(C)C(=O)NC2CCCCC2)[C@@H](C)CN([C@@H](C)CO)S3(=O)=O)cc1	/	-14	i	/	/	/	5	4	-0.1
62	COc1cc(OC)c(N(C)S(=O)(=O)c2cccc(C(=O)OCC(=O)N3CCOCC3)c2)cc1Cl	1.5	-2.7	i	-7%	-2	0.71	/	/	/
63	O=C(C1CCCCC1)N1CC2(C1)[C@H](c1ccccc1)[C@@H](CO)N2CCC(F)(F)F	/	-4.9	i	/	/	/	-4	-5	0.9
64	COCC#Cc1cnc2c(c1)C(=O)N([C@@H](C)CO)C[C@H](C)[C@H](CN(C)C(=O)c1cccc(F)c1)O2	/	-5.3	i	/	/	/	1	13	-2.6
65	Cn1cc(Br)c(C(=O)NC(=S)N2CCN(c3ccccn3)CC2)n1	1.4	-9.7	i	-10%	5	0.61	6	7	0.9
66	Cc1noc(C)c1C(=O)OC(C)C(=O)c1c[nH]c2ccccc12 (stereo not drawn)	2.2	-0.8	i	-8%	/	/	0	-19	-0.5
67	CCN(c1ccccc1)S(=O)(=O)c1ccc(Cl)nc1	-2.3	0.8	i	2%	-2	0.7	5	-3	-1.6
68	Cc1cccc(N2CC(C(=O)NCc3ccco3)CC2=O)c1C (stereo not drawn)	-0.6	0.0	i	11%	-1	0.73	0	-3	3.2
